A1 inhib: A1 inhibition. MEF A1-2A-BIM cells, caspase-Glo luminescence, 3 h; percent of clofoctol signal, DMSO as zero. caspase activation, % (test concentration not listed). 21,000 tested, 0.51% active;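 active = most replicate scores above 10, or exactly half above 10 with mean activity above 10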;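 also: effector caspase 3 and 7 activity cleaving a DEVD luciferin substrate; 50 nL library stock added to about 30 µL; numbers are from one replicate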
BJeLR viab HTS: lowers viability of BJeLR cells; viability loss activity score, % (no concentration beside the values); BJeLR fibroblasts viability, CellTiterGlo ATP luminescence, 48 h; HRASV12, hTERT and SV40 LT/ST transformed; 30,000 tested, 0.64% active; in the data active = viability loss activity score above about 50%; about a fifth of its hits are not listed in these tables;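 also: higher score means fewer live cells and less ATP luminescence; stock transfer was 50 or 100 nL into about 30 µL; 0% = vehicle wells and 100% = a reference killing control; one replicate is shown; the record names a cut of 85%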
Active calls of the source: *; / = no result given. Not all compounds are listed. The share of hits here may be higher or lower than overall.

SMILES	A1 inhib	BJeLR viab HTS
C[C@@H]1CN([C@H](C)CO)C(=O)c2cccc(NC(=O)Nc3ccc(F)cc3)c2O[C@@H]1CN(C)C(=O)Nc1ccccc1	/	-5.0
COc1ccc(NC(=O)N(C)C[C@@H]2Oc3ccc(NC(=O)CCN4CCOCC4)cc3C(=O)N([C@@H](C)CO)C[C@H]2C)cc1	0.2	-2.0
COC(=O)c1cn(NC(=O)C(c2ccccc2)C2CCCC2)c(=O)c2ccccc12 (stereo unspecified)	/	3.1
Cn1c2ccccc2c2c(C(=O)N3CCCCC3)cn(C3CCCC3)c(=O)c21	/	2.0
COc1ccc(NC(=O)N(C)C[C@@H]2Oc3ccc(NS(=O)(=O)c4ccc(OC)cc4)cc3C(=O)N([C@H](C)CO)C[C@@H]2C)cc1	0.8	-3.6
CCc1c(C(C)O)oc2ccc3c(C)cc(=O)oc3c12 (stereo unspecified)	-0.5	-0.2
COc1ccc(CN(C)C[C@H]2Oc3ccc(NS(=O)(=O)c4cccs4)cc3C(=O)N([C@@H](C)CO)C[C@@H]2C)cc1	0.5	-3.3
O=C(NCCOc1cccc(C(F)(F)F)c1)c1cccc(NC2=NC3CS(=O)(=O)CC3S2)c1 (stereo unspecified)	-5.7	-4.4
C[C@H](CO)N1C[C@H](C)[C@H](CN(C)S(=O)(=O)c2ccc(F)cc2)Oc2c(NC(=O)Nc3ccccc3)cccc2C1=O	/	-3.1
C[C@@H]1CN([C@@H](C)CO)C(=O)c2cccc(NS(=O)(=O)c3ccccc3)c2O[C@H]1CN(C)S(=O)(=O)c1cccs1	/	6.8
CCCn1c(=O)c2c(nc3n2CCCN3Cc2ccco2)n(C)c1=O	-2.0	-0.3
C[C@@H]1CN([C@H](C)CO)C(=O)c2cccc(NS(=O)(=O)c3ccc(Cl)cc3)c2O[C@@H]1CN(C)Cc1ccc(C(F)(F)F)cc1	/	-4.8
C[C@@H]1CN([C@@H](C)CO)C(=O)c2cccc(NC(=O)c3ccncc3)c2O[C@@H]1CN(C)Cc1ccc(-c2ccccc2)cc1	/	1.0
C[C@H]1CN([C@@H](C)CO)C(=O)c2cc(NC(=O)C3CCCCC3)ccc2O[C@H]1CN(C)S(=O)(=O)c1ccccc1	0.5	1.9
CCCCCCCNS(=O)(=O)c1cccc2c(Cl)cccc12	-1.0	-3.5
CC(=O)NC(c1ccccc1)c1ccc2cccnc2c1O (stereo unspecified)	/	76.4*
C[C@@H]1CN([C@H](C)CO)C(=O)c2cccc(NS(=O)(=O)c3cn(C)cn3)c2O[C@H]1CN(C)C	/	-1.0
Cn1c(=O)c2c(O)c(C=Nc3ccc(Cl)cc3)c(=O)n(C)c2n(C)c1=O	-0.2	-2.9
CN(C)c1ccc(/C=C2/S/C(=N/O)NC2=O)cc1	/	8.0
CNC[C@H]1Oc2ccc(NC(=O)Nc3ccc(F)cc3)cc2C(=O)N([C@H](C)CO)C[C@H]1C	-0.1	-1.3
N#C/C(N=Cc1cccs1)=C(\C#N)NCc1c(F)cccc1Cl	-0.1	0.0
CNC[C@H]1Oc2ccc(N)cc2C(=O)N([C@@H](C)CO)C[C@@H]1C	-0.6	4.9
CN(C)C(CNS(=O)(=O)c1ccc(F)cc1)c1cccnc1 (stereo unspecified)	/	1.3
CNC[C@H]1Oc2ccc(NC(=O)C3CCCCC3)cc2C(=O)N([C@H](C)CO)C[C@H]1C	-0.3	-0.6
C[C@H](CO)N1C[C@H](C)[C@H](CN(C)S(=O)(=O)c2cn(C)cn2)Oc2ccc(NS(=O)(=O)c3ccccc3)cc2C1=O	0.1	0.0
C[C@@H]1CN([C@@H](C)CO)C(=O)c2cccc(NS(C)(=O)=O)c2O[C@H]1CN(C)Cc1ccncc1	/	3.0
Cc1noc(C)c1NC(=O)Nc1ccc2c(c1)C(=O)N([C@H](C)CO)C[C@H](C)[C@@H](CN(C)C(=O)Nc1ccc3c(c1)OCO3)O2	0.5	-4.9
CC(C)NC(=O)Nc1ccc2c(c1)C(=O)N([C@@H](C)CO)C[C@@H](C)[C@@H](CN(C)Cc1ccc3c(c1)OCO3)O2	0.8	3.5
C[C@H](CO)N1C[C@H](C)[C@@H](CN(C)C(=O)Nc2ccccc2)Oc2ccc(NC(=O)CCN3CCOCC3)cc2C1=O	-0.3	-6.2
CC1=CC(C)C(C(=O)O)C(C(=O)Nc2ccccc2)C1 (stereo unspecified)	0.9	-2.8

Copied from the list.
Under BJeLR viab HTS, C[C@@H]1CN([C@@H](C)CO)C(=O)c2cccc(NS(=O)(=O)c3ccccc3)c2O[C@H]1CN(C)S(=O)(=O)c1cccs1 is entered as 6.8
Under BJeLR viab HTS, C[C@H](CO)N1C[C@H](C)[C@H](CN(C)S(=O)(=O)c2ccc(F)cc2)Oc2c(NC(=O)Nc3ccccc3)cccc2C1=O is entered as -3.1
Under BJeLR viab HTS, C[C@@H]1CN([C@H](C)CO)C(=O)c2cccc(NS(=O)(=O)c3cn(C)cn3)c2O[C@H]1CN(C)C is entered as -1.0
Under BJeLR viab HTS, Cn1c2ccccc2c2c(C(=O)N3CCCCC3)cn(C3CCCC3)c(=O)c21 is entered as 2.0
Under A1 inhib, Cn1c(=O)c2c(O)c(C=Nc3ccc(Cl)cc3)c(=O)n(C)c2n(C)c1=O is entered as -0.2
Under BJeLR viab HTS, CN(C)C(CNS(=O)(=O)c1ccc(F)cc1)c1cccnc1 (stereo unspecified) is entered as 1.3

Following part.
SMILES	A1 inhib	BJeLR viab HTS
CC(C)CCNC(=O)c1ccc(CS(=O)(=O)c2cccc(C(F)(F)F)c2)o1	/	1.2
CC(C)(C)c1cc(-c2cccs2)c(C#N)c(SCC(=O)Oc2ccccc2)n1	-0.4	1.4
CC(=O)NC(=O)NCc1ccccc1	-1.2	2.7
Cc1ccc(S(=O)(=O)Nc2cccc3c2O[C@@H](CN(C)C(=O)Nc2ccc(F)cc2)[C@H](C)CN([C@@H](C)CO)C3=O)cc1	/	-0.4
CCOC(=O)c1c(-c2ccccc2)csc1/N=C/C1C(=O)CCCC1=O	/	-0.9
Cc1c(S(=O)(=O)c2ccc(Cl)cc2)csc1C(=O)N(Cc1ccccc1)Cc1cccnc1	-0.7	2.9
C[C@H]1CN([C@@H](C)CO)C(=O)c2cccc(NS(=O)(=O)c3ccc(Cl)cc3)c2O[C@H]1CN(C)S(=O)(=O)c1ccc(F)cc1	/	5.8
NC(=O)NCCc1ccccc1	0.3	3.3
CCn1c(C(=O)N2CCCC(C(=O)NCCCc3ccccc3)C2)cc2sccc21 (stereo unspecified)	0.0	-1.6
Cc1n[nH]c(C)c1S(=O)(=O)N1CCC2(CC1)OCCO2	/	-5.7
COc1cccc2c1C(=O)CC(c1ccccc1)O2 (stereo unspecified)	0.4	-5.0
O=S(=O)(CCN1CCC(n2cccc2)CC1)c1ccc(F)cc1	1.2	0.6
CC(c1ccccc1)N1C(=O)c2ccccc2C1Nc1ccc(F)cc1 (stereo unspecified)	/	-2.9
COc1c(O)c(C(=O)/C=C\c2ccccc2)c(OC)c(OC)c1OC	-0.2	-4.4
C[C@@H]1O[C@@H](O[C@@H]2C=C(CO)[C@H]3[C@H](O[C@@H]4O[C@H](CO)[C@@H](O)[C@H](O)[C@H]4O)OC=C[C@H]32)[C@H](O)[C@H](O)[C@H]1OC(=O)/C=C/c1ccccc1	0.3	0.1
O=C(Cc1ccccc1)NN(c1ccccc1)c1ccccc1	-0.1	-1.9
O=C(NCC(=O)N1CCCCCC1)c1cccs1	-1.6	-1.2
CN1N=C2c3ccccc3CCCC2C1c1ccc2c(c1)OCO2 (stereo unspecified)	/	-0.5
O=c1c2ccccc2nc2c3ccccc3c(N3CCOCC3)nn12	-0.7	-1.7
CC(C)(C)c1ccc(/C=N/n2cnnc2)cc1	0.0	3.8
COc1ccc(/C=C/C(=O)N2CCN=C2c2ccccc2)cc1OC	/	3.9
COC(=O)c1ccccc1N=C(C)C1=C(O)c2ccccc2C1=O	-1.0	9.9
C[C@@H]1CN([C@@H](C)CO)C(=O)c2cccc(NC(=O)c3nc4ccccc4s3)c2O[C@@H]1CN(C)CC1CC1	/	-3.4
COc1cc2c(cc1OC)C(C)N(C(=O)c1cc3c(C)cc(C)cc3[nH]1)CC2 (stereo unspecified)	0.4	1.3
CCCN1CCC2(CC1)C(C#N)=C(S)NC(=O)C2C#N (stereo unspecified)	-0.8	0.4
CC1=CS(=O)(=O)CC1Sc1nc2ccccc2[nH]1 (stereo unspecified)	-0.2	0.0
Cc1cc(C)c(C)c(Cn2cnc3ccccc32)c1C	-0.4	2.8
C[C@H](CO)N1C[C@H](C)[C@H](CN(C)CC2CC2)Oc2ccc(NS(=O)(=O)c3cccs3)cc2C1=O	0.3	3.2
CCC(=O)Nc1ccc2c(C)cc(C)nc2n1	0.9	-0.5
C[C@H](CO)N1C[C@H](C)[C@H](CN(C)S(=O)(=O)c2cccs2)Oc2ccc(NC(=O)c3ccncc3)cc2C1=O	0.8	0.3

3 of the compounds above, with each value named.
SMILES: O=C(NCC(=O)N1CCCCCC1)c1cccs1
  A1 inhib: -1.6	BJeLR viab HTS: -1.2
SMILES: CN1N=C2c3ccccc3CCCC2C1c1ccc2c(c1)OCO2 (stereo unspecified)
  A1 inhib: /	BJeLR viab HTS: -0.5
SMILES: O=c1c2ccccc2nc2c3ccccc3c(N3CCOCC3)nn12
  A1 inhib: -0.7	BJeLR viab HTS: -1.7

The list continues:
SMILES	A1 inhib	BJeLR viab HTS
CC(C)[C@H](N)C(=O)N[C@@H](Cc1c[nH]c2ccccc12)C(=O)O	-0.1	-1.6
CC1(C)[C@@H](OC(=O)CCC(=O)O)CC[C@]2(C)[C@H]3C(=O)C=C4[C@@H]5C[C@@](C)(C(=O)O)CC[C@]5(C)CC[C@@]4(C)[C@]3(C)CC[C@@H]12	-0.2	1.7
COc1cc(OC)c(-c2c(OC)cc(OC)cc2OC)c(OC)c1	0.6	-7.3
CSc1cccc(NC(=O)CSc2nc3ccccc3[nH]2)c1	-0.6	1.0
COc1ccc(S(=O)(=O)N(C)C[C@@H]2Oc3c(NC(=O)NC(C)C)cccc3C(=O)N([C@H](C)CO)C[C@@H]2C)cc1	/	2.5
COc1ccc(CN(C)C[C@H]2Oc3c(NS(=O)(=O)c4cn(C)cn4)cccc3C(=O)N([C@@H](C)CO)C[C@H]2C)cc1	/	1.2
CNC[C@@H]1Oc2c(NC(=O)C3CCCCC3)cccc2C(=O)N([C@@H](C)CO)C[C@@H]1C	/	3.3
CSc1sc(C(=O)NN)cc1-c1nc(C)cs1	-0.3	4.1
Cc1cc(N2CCCC2)ccc1/C=C(/C#N)c1ccc(F)cc1	-0.3	31.0
Cc1ccc(NC(=O)c2ccc(CSc3ncnc4nc[nH]c34)cc2)cc1	-0.2	-3.1
CCn1cc(C(=O)N2CCCC2)c(=O)c2cc(S(=O)(=O)N(C)C)ccc21	/	2.8
COc1ccccc1C1CCN(C(=O)c2cccs2)CC1	0.0	-3.3
CCN1C(=O)/C(=C\c2ccsc2)SC1=S	-1.4	-7.2
C[C@H](CO)N1C[C@H](C)[C@@H](CN(C)S(=O)(=O)c2cn(C)cn2)Oc2ccc(NC(=O)Cn3cnnn3)cc2C1=O	0.0	-1.1
COc1ccc(/C=C2\CC/C(=C\c3ccc(C)cc3)C2=O)cc1	0.0	-0.2
COc1cc(/C=N/n2cnc3c(sc(=S)n3C)c2=O)ccc1O	0.5	-0.4
C[C@H](CO)N1C[C@H](C)[C@@H](CN(C)S(=O)(=O)c2ccc(F)cc2)Oc2ccc(N(C)C)cc2C1=O	-0.3	-8.8
CCOc1ccc(N2CSC(=S)N(c3ccc(OCC)cc3)C2)cc1	0.2	1.2
C[C@H]1CN([C@@H](C)CO)C(=O)c2cc(NS(=O)(=O)c3cccs3)ccc2O[C@H]1CN(C)Cc1ccccc1	0.7	5.2
Cc1ccc(N2C(=O)C3Sc4[nH]c(=O)sc4C(c4ccccc4)C3C2=O)cc1 (stereo unspecified)	1.2	-4.4
COc1ccc(S(=O)(=O)N(C)C[C@@H]2Oc3c(NC(=O)c4cc(C)nn4C)cccc3C(=O)N([C@H](C)CO)C[C@H]2C)cc1	/	1.7
COc1cc2oc(-c3ccc(O)cc3)cc(=O)c2c(O)c1OC	-3.0	-1.4
COc1ccc(-c2nc(C)c(CCNC(=O)C(C)(C)C)s2)cc1	-0.2	-1.9
CCOc1ccccc1N(C)S(=O)(=O)c1ccc2[nH]c(=O)ccc2c1	0.0	1.5
O=C(c1cc2cc(Br)ccc2oc1=O)N1CCCc2ccccc21	0.2	-0.5
O=C(O)CSc1nnc(Cn2c(=O)sc3ccccc32)n1-c1cccc(C(F)(F)F)c1	0.4	3.7
C[C@H](CO)N1C[C@H](C)[C@@H](CN(C)S(=O)(=O)c2cn(C)cn2)Oc2c(NS(=O)(=O)c3ccc(F)cc3)cccc2C1=O	/	0.3
Cc1ccc(-c2nc(Nc3cccc(C(F)(F)F)c3)sc2CC(=O)O)cc1	/	-3.0
CCCCOC(=O)c1cc2c(cn1)[nH]c1ccccc12	-1.6	10.8
CS(=O)(=O)Nc1ccc2oc3ncccc3c(=O)c2c1	-1.7	-2.3
C[C@H]1CN([C@@H](C)CO)C(=O)c2cccc(NS(=O)(=O)c3ccc(Cl)cc3)c2O[C@H]1CN(C)C(=O)Nc1ccc2c(c1)OCO2	/	-0.9
C[C@H](CO)N1C[C@H](C)[C@@H](CN(C)Cc2ccc(Oc3ccccc3)cc2)Oc2c(NC(=O)Nc3ccccc3)cccc2C1=O	/	7.0
COC(=O)c1scc2c(SCc3ccccc3)cc(C(F)(F)F)nc12	-0.6	1.6

Source: PubChem
